Screens: PubChem, Broad Institute
YB-1 expression: YB-1 expression inhibition; 0.37% of 30,000 active; AID 434959; U2OS, qRT-PCR YB-1 vs CDIP delta delta Cp, 16 h; active compounds read high; zero = DMSO, each unit about twofold; delta delta Cp (YB-1 minus CDIP) (test concentration not listed);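 active means delta delta Cp rounded down to an integer at or above 3, about 3 SD of DMSO wells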;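 further: higher means less YB-1 transcript or more CDIP transcript relative to DMSO; stock transfer was 100 nL into about 100 µL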
MITF inhib: MITF inhibition; TRPM1 promoter luciferase, luminescence, 24 h; inhibition, % (concentration not given with the values); 0.28% of 37,000 active; AID 2240;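 active means most replicates at 85% or more, or half of them and the mean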;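 further: human melanocyte line stably carrying TRPM1 promoter luciferase reporter; 0% = vehicle wells and 100% = a positive control; the first replicate is given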
Hedgehog inh: blocks Sonic Hedgehog signaling. Shh-LIGHT2 Gli-luciferase reporter, 30 h. inhibition, % (test concentration not listed). 2.1% of 22,000 active. AID 2313;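 active means replicate mean of 65% or more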;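 further: pathway switched on by Shh-conditioned medium diluted 1 in 25 in low serum; 100 nL library stock added to about 40 µL; 0% = median of neutral wells and 100% = positive control level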
PD-1 reversal: activators reversing PD-1 mediated T-cell inhibition; 29,000 tested, under 10 active; activation, % (no concentration beside the values); primary human CD4 T cells, PD-L1 beads, CellTiter-Glo 96 h; AID 2316;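 active means replicate mean of 50% or more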;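 further: 0% = median vehicle wells and 100% = positive control; 100 nL library stock added to about 50 µL; numbers are from one replicate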
* hit, by the source's call; / = not tested or not shown.

Each structure is followed by: YB-1 expression	MITF inhib	Hedgehog inh	PD-1 reversal
COc1ccc(NC(=O)N(C)C[C@H]2Oc3c(NS(=O)(=O)c4cn(C)cn4)cccc3C(=O)N([C@@H](C)CO)C[C@H]2C)cc1
  -0.17	-8	-18	/
C[C@@H]1CN([C@@H](C)CO)C(=O)c2cccc(NS(=O)(=O)c3ccccc3)c2O[C@@H]1CN(C)S(=O)(=O)c1ccccc1
  -0.17	-3	-12	/
C[C@@H]1CN([C@H](C)CO)C(=O)c2cccc(NC(=O)Nc3cccc4ccccc34)c2O[C@@H]1CN(C)C(=O)Nc1ccc(F)cc1
  -0.026	31	9	-2.1
Cc1ccc(S(=O)(=O)N(C)C[C@H]2Oc3c(NC(=O)c4ccc(-c5nccs5)cc4)cccc3C(=O)N([C@@H](C)CO)C[C@H]2C)cc1
  0.34	13	1	-1.0
COc1cc(/C=C/C(=O)CC(=O)/C=C/c2ccc(O)c(OC)c2)ccc1O
  -0.15	4	32	/
C[C@H]1CN([C@@H](C)CO)C(=O)c2cccc(NC(=O)CCCCCC(=O)Nc3ccccc3N)c2O[C@H]1CN(C)Cc1ccc(-c2ccccc2)cc1
  0.42	-8	/	1.6
COc1ccc(C)cc1NC(=O)CN(c1ccc(F)cc1)S(C)(=O)=O
  /	-14	/	-0.4
Oc1c(C(Nc2ccccn2)c2cccc(OC3CCCC3)c2)ccc2cccnc12 (centres undefined)
  /	66	/	-12
CNC[C@H]1Oc2ccc(NC(=O)C3CC3)cc2CC(=O)N([C@@H](C)CO)C[C@@H]1C
  -0.52	-2	45	0.3
C[C@H](CO)N1C[C@H](C)[C@@H](CN(C)CC2CCCCC2)Oc2ccc(NC(=O)C3CCCCC3)cc2C1=O
  0.14	-1	1	-0.7
COc1ccc(S(=O)(=O)Nc2ccc3c(c2)C(=O)N([C@H](C)CO)C[C@@H](C)[C@H](CN(C)S(=O)(=O)c2cn(C)cn2)O3)cc1
  0.25	-11	-16	0.3
Cc1noc(C)c1S(=O)(=O)N(C)C[C@H]1Oc2ccc(NC(=O)NC3CCCCC3)cc2CC(=O)N([C@H](C)CO)C[C@H]1C
  -0.23	-5	-38	-0.5
C[C@@H]1CN([C@H](C)CO)C(=O)c2cc(NC(=O)Cn3cnnn3)ccc2O[C@@H]1CN(C)C(=O)NC1CCCCC1
  -0.35	-7	-6	0.6
COc1ccc(S(=O)(=O)N(C)CC(=O)Nc2ccccc2OC)cc1Cl
  /	-24	/	0.6
C[C@@H]1CN([C@@H](C)CO)C(=O)c2cccc(N(C)C)c2O[C@@H]1CN(C)Cc1ccc2c(c1)OCO2
  12*	-4	-14	0.5
CC(C)c1ccc2c(c1)CCC1[C@](C)(C(=O)O)CCC[C@]21C (some centres undefined)
  0.86	-22	-20	-0.2
COc1ccc(NC(=O)Nc2ccc3c(c2)CC(=O)N([C@@H](C)CO)C[C@@H](C)[C@@H](CN(C)S(=O)(=O)c2ccc(OC)cc2)O3)cc1
  0.27	3	2	/
C[C@H]1CN([C@@H](C)CO)C(=O)Cc2cc(NC(=O)CCCCCC(=O)Nc3ccccc3N)ccc2O[C@@H]1CN(C)C(=O)Nc1ccc(F)cc1
  -0.25	-11	/	-0.7
C[C@@H]1CN([C@@H](C)CO)C(=O)Cc2cc(NC(=O)Cn3cnnn3)ccc2O[C@@H]1CN(C)C(=O)Nc1ccc(C(F)(F)F)cc1
  -0.15	1	-55	-0.4
C[C@H](CO)N1C[C@H](C)[C@H](CN(C)S(=O)(=O)c2cn(C)cn2)Oc2c(NS(=O)(=O)c3cn(C)cn3)cccc2C1=O
  1.9	-13	-13	3.0
CC(=O)Nc1cccc(NS(=O)(=O)c2ccc(C)cc2)c1
  -0.34	9	-19	1.4
CC(=O)c1ccc(NC(=O)CNS(=O)(=O)c2cccc(Cl)c2)cc1
  /	-89	/	0.6
C[C@H]1CN([C@@H](C)CO)C(=O)Cc2cc(NC(=O)Cc3cn(C)c4ccccc34)ccc2O[C@@H]1CN(C)C
  -0.13	-1	-11	0.2
CCC(Sc1ccccn1)C(=O)Nc1cccc([N+](=O)[O-])c1 (centres undefined)
  /	-7	/	-0.7
CC(NS(=O)(=O)c1ccccc1)C(=O)Nc1ccc(Cl)c(C(F)(F)F)c1 (centres undefined)
  /	15	/	-1.6
C[C@@H]1CN([C@@H](C)CO)C(=O)c2cc(NC(=O)Cc3ccccc3)ccc2O[C@@H]1CN(C)Cc1ccc(-c2ccccc2)cc1
  -0.09	-1	/	-3.6
C[C@@H]1CN([C@H](C)CO)C(=O)c2cccc(NC(=O)C3CCOCC3)c2O[C@@H]1CN(C)C(=O)Nc1ccc2c(c1)OCO2
  0.76	11	-13	/
O=C(CSc1nnc(-c2ccccc2O)n1-c1ccccc1)Nc1ccc(Cl)c(C(=O)O)c1
  /	-20	/	3.9
C[C@@H]1CN([C@@H](C)CO)C(=O)c2cc(NC(=O)CCC(F)(F)F)ccc2O[C@@H]1CN(C)Cc1ccccc1
  -0.2	-7	0	-0.6
C[C@H](CO)N1C[C@H](C)[C@H](CN(C)Cc2ccc3c(c2)OCO3)Oc2ccc(NC(=O)c3ccncc3)cc2CC1=O
  0.22	4	-6	1.8

Later entries.
Each structure is followed by: YB-1 expression	MITF inhib	Hedgehog inh	PD-1 reversal
C[C@H]1CN([C@@H](C)CO)C(=O)c2cccc(NC(=O)CCCCCC(=O)Nc3ccccc3N)c2O[C@@H]1CN(C)Cc1ccncc1
  -0.8	-36	/	1.4
CC(C)(C)c1cc(-c2nnc(-c3cccs3)o2)n(Cc2ccc(F)cc2)n1
  -0.53	-12	-4	-11
CNC[C@@H]1Oc2ccc(NC(=O)Nc3cccc4ccccc34)cc2C(=O)N([C@@H](C)CO)C[C@@H]1C
  0.21	-4	/	1.2
Cc1occc(=O)c1CC=O
  -0.062	23	-6	/
C[C@@H]1CCCCO[C@H](CN(C)CC2CCCCC2)[C@@H](C)CN([C@H](C)CO)C(=O)c2cc(NC(=O)Nc3ccccc3)ccc2O1
  0.094	-22	/	/
COc1ccc(NC(=O)CSc2[nH]c(=O)cc(C)c2C#N)cc1OC
  /	-2	/	-0.2
Cc1noc(C)c1NC(=O)Nc1ccc2c(c1)CC(=O)N([C@H](C)CO)C[C@H](C)[C@H](CN(C)Cc1ccncc1)O2
  -0.1	-1	-19	1.1
C[C@@H]1CN([C@@H](C)CO)C(=O)c2cccc(NS(=O)(=O)c3ccc(Cl)cc3)c2O[C@H]1CN(C)Cc1ccc(Cl)c(Cl)c1
  0.71	5	10	/
C[C@H]1CN([C@@H](C)CO)C(=O)Cc2cc(NC(=O)Cn3cnnn3)ccc2O[C@@H]1CN(C)C(=O)Nc1ccc(F)cc1
  0.028	-20	/	/
CC(=O)Nc1ccc(OCC(=O)Nc2ccc(Cl)c(Cl)c2)cc1
  /	-8	/	0.9
C[C@@H]1CN([C@@H](C)CO)C(=O)c2cc(NC(=O)Nc3ccc(F)cc3)ccc2O[C@@H]1CN(C)C(=O)Nc1cccc2ccccc12
  -0.0047	-1	8	/
O=c1[nH]nc(-c2ccc(NCc3cccnc3)c([N+](=O)[O-])c2)c2ccccc12
  /	33	/	-0.8
CCc1cc(C(N)=S)ccn1
  -0.15	1	-22	/
CC(C)NC(=O)N(C)C[C@H]1Oc2ccc(NC(=O)CCC(F)(F)F)cc2C(=O)N([C@H](C)CO)C[C@@H]1C
  0.17	-9	-54	0.3
CC(C)CC1NC(=O)C2CCCN2C1=O (centres undefined)
  0.41	-3	7	-0.5
Cc1cc(C)c(C(=O)N2Cc3ccccc3NC2=S)c(C)c1
  -0.41	-38	-13	1.0
C[C@H]1CN([C@@H](C)CO)C(=O)c2cc(NS(=O)(=O)c3cccs3)ccc2O[C@H]1CN(C)Cc1ccc(-c2ccccc2)cc1
  -0.4	-7	8	0.5
C[C@H]1CN([C@@H](C)CO)C(=O)c2cc(NC(=O)Cc3ccccc3)ccc2O[C@H]1CN(C)Cc1ccc(C(=O)Nc2ccccc2N)cc1
  -0.3	5	/	-2.5
O=c1ccc2ccc(O)cc2o1
  0.24	5	-29	/
C[C@@H]1CN([C@@H](C)CO)C(=O)c2cc(NC(=O)c3ccncc3)ccc2O[C@@H]1CN(C)C(=O)NC1CCCCC1
  -0.23	2	10	0.0
COc1ccc(CN(C)C[C@@H]2Oc3ccc(NC(=O)NC4CCCCC4)cc3CC(=O)N([C@@H](C)CO)C[C@@H]2C)cc1
  -0.34	5	7	/
C[C@@H]1CN([C@@H](C)CO)C(=O)c2cccc(NC(=O)c3nc4ccccc4s3)c2O[C@H]1CN(C)C(=O)Nc1ccc(C(F)(F)F)cc1
  0.14	3	9	-2.0
CC(C)NC(=O)Nc1cccc2c1O[C@H](CN(C)Cc1ccc(Cl)c(Cl)c1)[C@H](C)CN([C@@H](C)CO)C2=O
  -0.07	-10	-3	/
C[C@@H]1CN([C@@H](C)CO)C(=O)c2cc(NS(=O)(=O)c3cn(C)cn3)ccc2O[C@@H]1CN(C)S(=O)(=O)c1cn(C)cn1
  0.37	-3	-48	-0.4
COc1ccc(CN(C)C[C@@H]2Oc3ccc(NC(=O)Nc4ccc(C(F)(F)F)cc4)cc3C(=O)N([C@H](C)CO)C[C@@H]2C)cc1
  -0.15	7	10	-2.7
COC(=O)CCC(=O)Nc1nccs1
  -0.33	10	4	0.5
C[C@H]1CN([C@@H](C)CO)C(=O)c2cccc(NC(=O)c3ccc(-c4nccs4)cc3)c2O[C@@H]1CN(C)S(=O)(=O)c1ccc(Cl)cc1
  0.093	13	14	1.1
CC(Oc1cccc(Cl)c1)C(=O)Nc1ccccc1C(=O)O (centres undefined)
  /	5	/	1.9
Cc1cc2c(cc1S(N)(=O)=O)S(=O)(=O)CCC2
  -0.23	0	-21	/
C[C@@H]1CN([C@@H](C)CO)C(=O)c2cc(N(C)C)ccc2O[C@@H]1CN(C)C(=O)Nc1ccc(F)cc1
  -0.14	-1	17	0.2

As a short view, 5 of the compounds above:
Each structure is followed by: YB-1 expression	MITF inhib	Hedgehog inh	PD-1 reversal
C[C@H]1CN([C@@H](C)CO)C(=O)c2cccc(NC(=O)CCCCCC(=O)Nc3ccccc3N)c2O[C@@H]1CN(C)Cc1ccncc1
  -0.8	-36	/	1.4
CC(C)(C)c1cc(-c2nnc(-c3cccs3)o2)n(Cc2ccc(F)cc2)n1
  -0.53	-12	-4	-11
CNC[C@@H]1Oc2ccc(NC(=O)Nc3cccc4ccccc34)cc2C(=O)N([C@@H](C)CO)C[C@@H]1C
  0.21	-4	/	1.2
Cc1occc(=O)c1CC=O
  -0.062	23	-6	/
C[C@@H]1CCCCO[C@H](CN(C)CC2CCCCC2)[C@@H](C)CN([C@H](C)CO)C(=O)c2cc(NC(=O)Nc3ccccc3)ccc2O1
  0.094	-22	/	/

Going on with the list:
compound	YB-1 expression	MITF inhib	Hedgehog inh	PD-1 reversal
Cc1ccc(N(CC(=O)Nc2ccc(F)c(Cl)c2)S(C)(=O)=O)cc1	/	-10	/	-2.3
C[C@@H]1CN([C@@H](C)CO)C(=O)c2cc(NC(=O)Nc3ccc4c(c3)OCO4)ccc2O[C@@H]1CN(C)Cc1ccc(C(=O)O)cc1	0.17	-2	-35	/
Cc1noc(C)c1NC(=O)Nc1ccc2c(c1)CC(=O)N([C@@H](C)CO)C[C@H](C)[C@H](CN(C)Cc1ccc3c(c1)OCO3)O2	0.35	-23	-14	1.8
C[C@@H]1CN([C@H](C)CO)C(=O)c2cccc(NC(=O)Nc3ccccc3)c2O[C@@H]1CN(C)Cc1ccc(C(F)(F)F)cc1	0.41	-6	-43	1.1
C[C@H]1CN([C@@H](C)CO)C(=O)Cc2cc(NC(=O)Cn3cnnn3)ccc2O[C@H]1CN(C)C(=O)Nc1ccc(C(F)(F)F)cc1	-0.18	-12	/	/
NC1CCN(c2cccc(Cl)n2)CC1	0.11	21	6	3.0
CC(C)NC(=O)N(C)C[C@H]1Oc2ccc(NC(=O)C3CC3)cc2C(=O)N([C@@H](C)CO)C[C@@H]1C	0.2	-10	/	0.5
C[C@H]1CN([C@@H](C)CO)C(=O)Cc2cc(NC(=O)Nc3ccc(F)cc3)ccc2O[C@@H]1CN(C)C	-0.4	13	-17	0.6
COc1ccc(S(=O)(=O)Nc2ccc3c(c2)CC(=O)N([C@@H](C)CO)C[C@H](C)[C@H](CN(C)S(=O)(=O)c2cccs2)O3)cc1	0.12	-11	-18	1.2
C[C@@H]1CN([C@@H](C)CO)C(=O)c2cccc(N(C)C)c2O[C@@H]1CN(C)S(=O)(=O)c1cn(C)cn1	1.1	3	-8	0.3
COC(=O)c1ccccc1NC(=O)CN(c1cccc2ccccc12)S(C)(=O)=O	/	14	/	-0.5
CS(=O)(=O)N(CC(=O)Nc1ccc(F)cc1F)c1cc(Cl)c(Cl)cc1Cl	/	7	/	-1.4
CC(C)NC(=O)N(C)C[C@H]1Oc2c(NC(=O)Nc3ccc(F)cc3)cccc2C(=O)N([C@H](C)CO)C[C@@H]1C	-0.042	-8	-20	/
O=S(=O)(CCSc1nccc(-c2ccc(Cl)cc2)n1)c1ccc(Cl)cc1	0.0049	-1	21	0.2

Some of the compounds tested, so the mix of outcomes need not match the whole.
